LASV entry inh – qHTS for Inhibitors of binding or entry into cells for Lassa Virus. Lassa virus pseudotyped entry inhibition, cell-based qHTS; control for the full effect not named in the record; many of its hits are not listed in these tables. Potency, µM (top dose mostly 49.2 µM), without a hit: top-dose activity change, negative = inhibition, hits mostly inhibitors. actives 4.1% (n = 18,000). AID 720533, 2013; active = well fitted inhibition curve with a large enough effect; inconclusive = small, poorly fitted or top-dose-only effect; inactive = no such curve, though single readings can be large or run the other way; tested in HEK293 cells; also: luciferase read-out
Marburg entry – qHTS for Inhibitors of binding or entry into cells for Marburg Virus. Marburg virus pseudotype entry/binding inhibition, cell-based; control for the full effect not named in the record; many of its hits are not listed in these tables. Potency, µM (series often up to 49.2 µM), without a hit: at the highest dose activity change, negative = inhibition, most hits filed as inhibitors. actives 6.5% (n = 18,000); active means well fitted inhibition curve with a large enough effect; inconclusive means small, poorly fitted or top-dose-only effect; inactive means no such curve, though single readings can be large or run the other way; tested in HEK293 cells; also: luciferase read-out
Numbers without * were called inactive; ? = inconclusive; / = no result given; & = joins results of further samples; [ ] = dose if it differs, or a comment. % is scaled to controls: 0 for no effect and ±100 for the full control effect; potency is read from the fitted curve at half-maximal effect.

1	Cc1ccc(S(=O)(=O)N2CCC(=O)N([C@H](COCc3ccc(Cl)cc3)Cc3ccccc3)CC2)cc1
2	CC/C=C\C[C@H](O)/C=C/C=C\C/C=C\C/C=C\CCCC(=O)O
3	CC(C)OC(=O)c1cc(C(=O)OC(C)C)cc([N+](=O)[O-])c1
4	OC[C@@H]1O[C@@H](n2cnc3c(NC4CCCC4)ncnc32)[C@H](O)[C@H]1O
5	CCCN(CCC)[C@@H]1CCc2ccc(O)cc2C1
6	O=C1NC2CCCCN2C12CCN(CCCN1c3ccccc3CCc3ccc(Cl)cc31)CC2 (stereo not given)
7	CC[C@@H](C)CCCCC(=O)N[C@@H](CCNCS(=O)(=O)O)C(=O)N[C@H](C(=O)N[C@@H](CCNCS(=O)(=O)O)C(=O)N[C@H]1CCNC(=O)[C@H]([C@@H](C)O)NC(=O)[C@H](CCNCS(=O)(=O)O)NC(=O)[C@H](CCNCS(=O)(=O)O)NC(=O)[C@H](CC(C)C)NC(=O)[C@@H](CC(C)C)NC(=O)[C@H](CCNCS(=O)(=O)O)NC1=O)[C@@H](C)O
8	Cc1cc2c3c(cccc3n1)C(=O)c1ccccc1-2

entry no. | 1 | 2 | 3 | 4 | 5 | 6 | 7 | 8
LASV entry inh | -27% | -15% | -31%[107 µM] | 5% | -9% | 28µM* | -12% | -4%
Marburg entry | ? | -15% | -13%[107 µM] | 15% | -4% | 7.1µM* | ? | -6%

9	COC(=O)[C@@]1(C=C2c3ccccc3[C@@H](OC)[C@@H]2C)[C@@H]2Oc3ccccc3[C@@H]21
10	COc1ccc([C@H]2C[C@H](O)[C@@H](n3cc(COC(=O)c4ccccc4)nn3)CN2C(=O)C2CCCCC2)cc1
11	CC1CC[C@@]2(OC1)OC1CC3C4CC[C@@H]5CC(O)CC[C@@]5(C)C4CC[C@]3(C)C1C2C (stereo not given in full)
12	Fc1ccc(C(OCCN2CCN(C/C=C\c3ccccc3)CC2)c2ccc(F)cc2)cc1
13	COCC(=O)Nc1cc(C(=O)N2CCCCC2c2nccs2)c2c(c1)nc(-c1ccncc1)n2C (stereo not given)
14	COC(=O)[C@@H](NC(=O)O[C@@H]1C(=O)c2cc(Br)ccc2O[C@H]1c1ccc2c(c1)OCO2)C(C)C
15	CCOC(=O)NC(C)(C)Cc1ccc(Cl)cc1
16	O=c1[nH]cnc2c1ncn2C1OC(CO)C(O)C1O (stereo not given)

entry no. | 9 | 10 | 11 | 12 | 13 | 14 | 15 | 16
LASV entry inh | / | -12% | -2% | 28µM* | -5% | -6% | -2% | 2%&-4%
Marburg entry | 0%[8.59 µM] | -29% | 17% | ? | 6% | 23% | -14% | 9%&6%

17	Cn1c(=O)c2c(nc(/C=C/c3cccc(Cl)c3)n2C)n(C)c1=O
18	O=C(O)COc1ccc(C(=O)c2cccs2)c(Cl)c1Cl
19	COc1ccc(CN2CCCC(n3cc(C(=O)N4CCCCC4)nn3)C2)c(OC)c1 (stereo not given)
20	COC(=O)C=P(c1ccccc1)(c1ccccc1)c1ccccc1
21	COC(=O)C1=C(C)N(CC2CC2)C(=O)NC1CCc1ccccc1 (stereo not given)
22	CC1N=C(N)OC1c1ccccc1 (stereo not given)
23	CNCC(N)C(=O)O (stereo not given)
24	O=C(NC1CC1)[C@@H]1C[C@H](Sc2nc3ccccc3[nH]2)CN1CC1CCCCC1

entry no. | 17 | 18 | 19 | 20 | 21 | 22 | 23 | 24
LASV entry inh | 8% | -16%&-4% | -5% | 2% | 9%[8.59 µM] | -1% | -12% | -16%
Marburg entry | 12% | ? | -26% | 3% | 21%[8.59 µM] | -1% | -6% | -10%

25	Cc1c(C(=O)NCc2cccc(F)c2)sc2ncnc(NCC3CCCO3)c12 (stereo not given)
26	COc1cc2c(cc1OC)[C@@H]1O[C@](CCCCN3C(=O)c4ccccc4C3=O)(C2)Oc2cc(C)n(Cc3ccccc3)c(=O)c21
27	O=C(Cn1cc2ccccc2n1)N1CCOc2ccc(C(O)C3CCCCC3)cc2C1 (stereo not given)
28	COc1ccccc1-c1cc(=O)c2cc(O)ccc2o1
29	O=C/C=C/c1ccccc1
30	CCCCCCCCCCCCC/C=C/[C@@H](O)[C@@H](N)CO
31	C=C(C)C(=O)/C=C/c1ccc(C(F)(F)F)cc1
32	CCCCCCN1CCN(C2CN(CCc3ccccc3)S(=O)(=O)C2)CC1 (stereo not given)

entry no. | 25 | 26 | 27 | 28 | 29 | 30 | 31 | 32
LASV entry inh | -12% | 26%[8.59 µM] | -24% | -1% | -10% | -8%&-9%&2% | 0% | -32%
Marburg entry | -18% | -3%[8.59 µM] | ? | 30% | 29% | -2%&6%&1% | -8% | 17%

33	Cc1cccc(Nc2ccncc2S(=O)(=O)NC(=O)NC(C)C)c1
34	COc1ccc(Nc2nccc(NCCO)n2)cc1
35	CNCCc1c[nH]c2ccc(O)cc12
36	COC1=CC2C(=O)C(C1=O)C1c3ccccc3CC21 (stereo not given)
37	O=C1c2ccccc2C(=O)N1CCCC[C@]12Cc3c(ccc4ccccc34)[C@H](O1)c1c(cc(-c3ccccc3)oc1=O)O2
38	O=c1cc(CN2CCCCC2)c2ccccc2o1
39	COc1ccc(-c2ccc(CN3C(C(C)C)C(=O)N(Cc4cn(CC5CCCCC5)nn4)CCS3(=O)=O)cc2)cc1OC (stereo not given)
40	Cc1oc(-c2ccccc2NC(=O)c2ccccc2)nc1CNC(=O)C1CC(=O)OC12CCCCC2 (stereo not given)

entry no. | 33 | 34 | 35 | 36 | 37 | 38 | 39 | 40
LASV entry inh | -3%[17.8 µM] | 6% | -15% | -17%[8.59 µM] | -13%[8.59 µM] | -15% | -25% | 2%
Marburg entry | 19%[17.8 µM] | 18% | 1% | -3%[8.59 µM] | ? | 26% | ? | 2%

41	C[C@H]1C/C=C/[C@@H]2[C@@H]3O[C@]3(C)[C@@H](C)[C@H]3[C@H](Cc4ccccc4)NC(=O)[C@]32OC(=O)O/C=C/[C@](C)(O)C1=O
42	COC(=O)[C@H](Cc1ccccc1)NC(=O)O[C@@H]1C(=O)c2cc(OC)ccc2O[C@H]1c1ccc(OC)c(Br)c1
43	COc1ccccc1-c1ccnc(-n2ncc(C(=O)NC3CCCN(Cc4ccccc4)C3)c2C)n1 (stereo not given)
44	CC(C)C(NS(C)(=O)=O)c1nnc2n1CCN(Cc1ccc3cccnc3c1)CC2 (stereo not given)
45	O=C(O)Cc1cc(I)c(Oc2cc(I)c(O)c(I)c2)c(I)c1
46	COc1ccc(C2COc3c(ccc(O)c3OC)C2)c(OC)c1O (stereo not given)
47	COC(=O)NC1C=CCCC1C(C)=O (stereo not given)
48	CNC(C)CCC=C(C)C (stereo not given)

entry no. | 41 | 42 | 43 | 44 | 45 | 46 | 47 | 48
LASV entry inh | ? | -1% | -2% | -10% | -3% | -8% | 1% | -10%
Marburg entry | 0.25µM* | 13% | ? | 11% | 7% | 7% | -4% | ?

49	O=C1CCC[C@@H]2CC(Nc3ccc(F)cc3F)C[C@@H]3CCN1[C@H]23 (stereo not given in full)
50	CCc1nc2cc(C(=O)NC3CCS(=O)(=O)C3)cc(NC(=O)c3ccccc3OC)c2n1C (stereo not given)
51	Cc1[nH]c2ccc(O)cc2c1CCN
52	CC(=O)Oc1c2c(c(CC=C(C)C)c3c1C(=O)C1=CC4CC5C(C)(C)OC(C/C=C(\C)C(=O)O)(C4=O)[C@]15O3)OC(C)(CCC=C(C)C)C=C2 (stereo not given in full)
53	COc1cc(/C=C(\C#N)C(=O)Nc2nnc(C(F)(F)F)s2)ccc1OCc1ccc(C(F)(F)F)cc1C(F)(F)F
54	CC(C)Nc1cccnc1N1CCN(C(=O)c2cc3cc(NS(C)(=O)=O)ccc3[nH]2)CC1
55	Cn1ccc(C(=O)NCC2CCC3(CCN(Cc4ccc(F)cc4F)CC3)O2)n1 (stereo not given)
56	CCCCCCCCC(=O)NCc1cc(OC)c(O)cc1I

entry no. | 49 | 50 | 51 | 52 | 53 | 54 | 55 | 56
LASV entry inh | -8% | 4% | 7%&6% | ? | -5% | -21% | -13% | -17%
Marburg entry | 6% | 1% | 0%&12% | 2.8µM* | 29% | -20% | ? | -16%

57	Brc1ccc(C2=NCCC(c3ccccc3)O2)cc1 (stereo not given)
58	CC(C)N(CCO)Cc1nc(N2CCOCC2)c2cc(Cl)ccc2n1
59	CC(C(=O)O)c1ccc2c(c1)Cc1cccnc1O2 (stereo not given)
60	CC1=CC2CC(CCO)OP(=O)(OC1)O2 (stereo not given)
61	O=S1(=O)CCSCCN1Cc1ccc(Cl)cc1
62	COc1cccc([C@@H]2Oc3ccc(OC)cc3C(=O)[C@H]2OC(=O)NS(=O)(=O)c2ccc(C)cc2)c1
63	CC1C(=O)OC2C1CC[C@@]1(C)C=CC(=O)[C@@]3(C)O[C@@]213 (stereo not given in full)
64	CC(=O)N[C@@H](C=O)[C@@H](O)[C@H](O)[C@H](O)CO

entry no. | 57 | 58 | 59 | 60 | 61 | 62 | 63 | 64
LASV entry inh | -13% | -1% | -11% | -19% | -16% | 22% | -4% | -4%
Marburg entry | 8% | -11% | 3% | -2% | 22% | 49%[activator] | -11% | 4%

Whole records, looked up by structure. Screens in order: LASV entry inh, Marburg entry
Profile of COc1cc(/C=C(\C#N)C(=O)Nc2nnc(C(F)(F)F)s2)ccc1OCc1ccc(C(F)(F)F)cc1C(F)(F)F = -5%, 29%
Profile of COc1ccccc1-c1cc(=O)c2cc(O)ccc2o1 = -1%, 30%
Profile of CCc1nc2cc(C(=O)NC3CCS(=O)(=O)C3)cc(NC(=O)c3ccccc3OC)c2n1C (stereo not given) = 4%, 1%
Profile of CC/C=C\C[C@H](O)/C=C/C=C\C/C=C\C/C=C\CCCC(=O)O = -15%, -15%

More entries:
65	CC(C)C[C@H]1COc2cc(N3CCCC3)ccc2S(=O)(=O)N1
66	CC(CCN1CCCCc2nc(C)c(C)cc21)=NO[C@@H](C)CN1CCCCc2nc(C)c(C)cc21
67	CS(=O)(=O)CCNCc1ccc(-c2ccc3ncnc(Nc4ccc(OCc5ccccc5)c(Br)c4)c3c2)o1
68	O=S1(=O)CC(N2CCN(CCO)CC2)CN1CCc1ccccc1 (stereo not given)
69	CC[C@H](C)[C@H](NC(=O)[C@H](C)NC(=O)[C@H](Cc1cnc[nH]1)NC(=O)[C@@H]1CCCN1C(=O)CNC(=O)[C@H](CC(C)C)NC(=O)[C@H](CC(C)C)NC(=O)[C@H](Cc1ccc(O)cc1)NC(=O)CNC(=O)[C@H](C)NC(=O)[C@H](CO)NC(=O)[C@H](CC(N)=O)NC(=O)[C@H](CC(C)C)NC(=O)[C@@H](NC(=O)[C@H](Cc1c[nH]c2ccccc12)NC(=O)CN)[C@@H](C)O)C(=O)N[C@@H](CC(=O)O)C(=O)N[C@@H](CC(N)=O)C(=O)N[C@@H](Cc1cnc[nH]1)C(=O)N[C@@H](CCCNC(=N)N)C(=O)N[C@@H](CO)C(=O)N[C@@H](Cc1ccccc1)C(=O)N[C@@H](CO)C(=O)N[C@@H](CC(=O)O)C(=O)N[C@@H](CCCCN)C(=O)N[C@@H](Cc1cnc[nH]1)C(=O)NCC(=O)N[C@@H](CC(C)C)C(=O)N[C@H](C(N)=O)[C@@H](C)O
70	COC(=O)c1ccccc1C(=O)N1CCOc2ccc(CN3CCN(c4ccccn4)CC3)cc2C1
71	Cc1noc(C)c1-c1cc(NCc2ccccc2)ncn1
72	COC(=O)[C@@]1(C=C2c3ccc(F)cc3[C@@H](OC)[C@@H]2C)[C@@H]2OCCC[C@@H]21

entry no. | 65 | 66 | 67 | 68 | 69 | 70 | 71 | 72
LASV entry inh | 14% | / | / | -11% | -3% | -10% | 0% | -9%[8.59 µM]
Marburg entry | 33%[activator] | 6%[8.59 µM] | ? | 24% | 5% | ? | 3% | 6%[8.59 µM]

73	C=CCC12C=C(OC)C(=O)C(C1=O)C1c3ccccc3CC12 (stereo not given)
74	Cc1cc(-n2nc3ccc(Cl)cc3n2)c(O)c(C(C)(C)C)c1
75	COc1ccc2c(c1)O[C@H](c1ccc3c(c1)OCO3)[C@@H](OC(=O)NS(=O)(=O)c1ccc(C)cc1)C2=O
76	N[C@@H](C(=O)O)c1cc(O)ccc1Cl
77	COC(=O)C1=C(C(=O)OC)[C@@H]2N(C)c3ccccc3[C@@]23C[C@@H](C(=O)OC)N(C(=O)c2cccs2)C3=N1
78	CC[N+](C)(CC)CCOC(=O)C(O)(c1ccccc1)c1ccccc1
79	NCCC[C@@H](CC(=O)N[C@@H]1CCNC[C@H]1C(=O)N[C@H](CC(=O)N[C@@H](CCC(=O)O)CC(=O)O)Cc1ccccc1)NC(=O)C[C@H](CO)NC(=O)[C@@H]1CNCC[C@H]1N
80	Nc1nc2c(ncn2C2OC(COC(=O)c3ccccc3)C(OC(=O)c3ccccc3)C2OC(=O)c2ccccc2)c(=O)[nH]1 (stereo not given)
81	CO/C=C(/C(=O)OC)c1ccccc1Oc1cc(Oc2ccccc2C#N)ncn1
82	COc1ccccc1CNc1ncnc2sc(C(=O)N(C)C(C)C)c(C)c12

entry no. | 73 | 74 | 75 | 76 | 77 | 78 | 79 | 80 | 81 | 82
LASV entry inh | 31%[activator][8.59 µM] | 3% | -5% | -4% | 7%[8.59 µM] | -12% | -26% | 11µM* | 22µM* | -1%
Marburg entry | 8%[8.59 µM] | 9% | 19% | 10% | 5%[8.59 µM] | -4% | 3% | -28% | 28µM* | -8%
